Bioassay records as filed in PubChem BioAssay.
MgcRacGAP Rac1 – MgcRacGAP inhibitors via phosphate release, confirmation, orthogonal assay, biochemical, inorganic phosphate detection, Rac1 (AID 652142). Rac GTPase-activating protein 1 (Homo sapiens). 2,400 tested, under 10 active. inhibition, %. MgcRacGAP/Rac1F28L GTP hydrolysis, Biomol green phosphate; active compounds read high; test concentration not given here; none was called active though about 1 in 100 pass the limit;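 active = inhibition over three standard deviations or about 65%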;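 note: full inhibition control lacks the GAP enzyme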
An asterisk follows results filed as active.

SMILES	MgcRacGAP Rac1
CSc1nc(O)c(/C=C2\C=Nc3ccccc32)[nH]1	27
COc1cc(/C=C/C(=O)OCC(=O)NCC2CCCCC2)ccc1O	20
COc1ccc(Nc2ccccc2)c(C)c1	16
O=C(Nc1ccccc1)c1cccc(-c2nnc(-c3ccccc3)o2)c1	25
Cc1ccc(-n2sc3ccccc3c2=O)cc1	66
COc1ccc2c(/C=N/Nc3ccc(C(=O)O)cc3)c[nH]c2c1	36
C/C(CC(=O)Nc1ccc(N(C)C)cc1)=N\NC(=O)c1ccc([N+](=O)[O-])cc1Cl	26
COCC(C)NCc1ccccc1C (centres undefined)	24
COc1cc(/C=C/C(=O)OCC(=O)NCc2ccc(F)cc2)ccc1O	11
COc1cc(/C=N\NC(=O)C2CC3C=CC2C3)ccc1O (centres undefined)	29
COc1cc(/C=N/NC(=O)c2[nH]nc3c2CCc2ccccc2-3)ccc1O	11
CCOc1cc(-c2nc3ccccc3s2)ccc1O	30
O=c1[nH][nH]cc1C=Nc1ccc(Cl)cc1Cl	29
O=C(Nc1ccc(Nc2ccccc2)cc1)C1CC1	21
O=C(O)CN1C(=O)/C(=C/c2ccc(SCc3ccccc3)o2)SC1=S	34
Cc1ccc(NC(=O)CCC(=O)N/N=C/c2ccc(O)cc2O)cc1	26
CCN(CC)c1ccc(C(=C2C=CC(=[N+](CC)CC)C=C2)c2ccccc2)cc1	28
CCc1nnc(N/N=C/c2c(C)[nH]c3ccccc23)n1N	1
COC(=O)c1ccc(C(=O)OCCCc2nc3ccc(N)cc3[nH]2)cc1	29
Clc1cc(Br)ccc1OCCOCCN1CCCC1	28
COc1cc(/C=C/C(=O)N[C@@H](Cc2c[nH]c3ccccc23)C(=O)O)ccc1O	35
CC(=O)N1CCN(CC(O)COc2ccc(Br)cc2)CC1 (centres undefined)	7
COc1cc(/C=N/NC(=O)c2nnn(-c3nonc3N)c2C(C)C)ccc1O	15
COc1cc(/C=C/C(=O)OCC(=O)Nc2cc(S(=O)(=O)N3CCCCC3)ccc2C)ccc1O	23
COc1ccc2c(c1)-c1nc(/N=C/c3ccccc3O)sc1CC2	-4

The list goes on; it opens with the 3 that closed the last part.
SMILES	MgcRacGAP Rac1
COc1cc(/C=N/NC(=O)c2nnn(-c3nonc3N)c2C(C)C)ccc1O	15
COc1cc(/C=C/C(=O)OCC(=O)Nc2cc(S(=O)(=O)N3CCCCC3)ccc2C)ccc1O	23
COc1ccc2c(c1)-c1nc(/N=C/c3ccccc3O)sc1CC2	-4
COCc1cc(C)nc(OCC(=O)N/N=C/c2ccc(O)cc2)c1C#N	32
CCN1CCN(Cc2ccc(NC(=O)c3ccc(C)c(/C=C/c4cnc(Nc5cc(N6CCNCC6)nc(C)n5)cn4)c3)cc2C(F)(F)F)CC1	70
Cc1cccc(C=Nc2ccc3c4c(cccc24)CC3)c1O	35
COc1cc(/C=N/NC(=O)c2ccc(-n3cccc3)cc2)ccc1O	12
CCN(CC)c1ccc(NC(=O)COC(=O)CCc2cc(OC)c(OC)c(OC)c2)cc1	20
O=c1cc(-c2ccc(O)c(O)c2)oc2cc(O)c([C@@H]3O[C@H](CO)[C@@H](O)[C@H](O)[C@H]3O)c(O)c12	24
CCN(CC)CCNCC(=O)Nc1ccc(Oc2ccccc2)cc1	15
CCN(CC)c1ccc(NC(=O)COC(=O)Cc2ccsc2)cc1	-10
O=C(O)c1cc(N2N=C(C(F)(F)F)/C(=C/C=C/c3ccco3)C2=O)ccc1Cl	93
Cc1ccccc1CN1CCN(C(=O)c2cccc3ccccc23)CC1	27
O=C(c1cccs1)N1CCN(Cc2ccncc2)CC1	30
O=C(CNCc1ccccn1)Nc1cc(C(F)(F)F)ccc1N1CCOCC1	25
Cn1c(-c2cccc([N+](=O)[O-])c2)cnc1NCc1cccc([N+](=O)[O-])c1	9
COC(=O)c1cc(NCc2ccccc2F)ccc1N1CCOCC1	29
CCOc1cc(/C=C(\C#N)C(=O)NCC2CCCO2)ccc1O (centres undefined)	24
COc1cc(/C=C/C(=O)OCC(=O)NC(=O)NC(C)(C)C)ccc1O	10
O=C(/C=C/c1ccc(O)c(O)c1)OC(Cc1ccc(O)c(O)c1)C(=O)O (centres undefined)	29
COc1ccc(-c2cc(C(=O)Nc3ccc(O)cc3)c3ccccc3n2)cc1OC	17
Cc1cc(NC(=O)c2sc3ccccc3c2O)no1	30
COc1cc(/C=N\NC(=O)CNC(=O)C(c2ccccc2)c2ccccc2)ccc1O	0
C1=Cc2ccccc2Nc2ccccc21	19
O=C(/C=C\c1ccco1)c1ccc(NC(=O)c2ccco2)cc1	40
COc1cc(-c2cc(C(=O)O)c3c(OC)c(OC)c(OC)cc3n2)ccc1O	18
CCN(CC)CCNc1ccc(C)c2sc3ccc(O)cc3c(=O)c12	13
COc1cc(CNc2ccc3[nH]c(=O)[nH]c3c2)ccc1OCc1ccccc1F	21
Continued:
SMILES	MgcRacGAP Rac1
COc1cc(C=c2c3ccccc3n3c2cc(-c2ccccc2)[n+]3C)cc(OC)c1OC	25
Cc1sc2ncnc(Nc3ccc(O)cc3)c2c1C	22
COc1cc(/C=C/C(=O)OCC(=O)Nc2ccc3c(c2)OCCO3)ccc1O	20
CC(=O)Nc1ccc(S(=O)(=O)Nc2ccc(Nc3ccccc3)cc2)cc1	13
COc1cc(CN2CCN(Cc3ccc(C(F)(F)F)cc3)CC2)cc(OC)c1OC	36
COc1ccccc1CNCC(=O)N1CC(=O)Nc2ccccc21	8
COc1cc(C=C2C(=O)c3ccccc3C2=O)cc(OC)c1OC	33
COc1ccc(NC2CCCN(C(=O)c3csc(C(C)C)n3)C2)cc1 (centres undefined)	25
O=C(O)c1ccc2c(c1)C(=O)/C(=C\c1ccco1)C2=O	48
COc1cc(C2NC(=O)C(C#N)=C(Nc3cccc(C)c3)S2)ccc1O (centres undefined)	32
O=c1c(O)c(-c2ccc(O)c(O)c2)oc2cc(O)ccc12	67
CS/C(=N\S(=O)(=O)c1cccs1)NC(=O)CSc1nc2ccccc2s1	18
Nc1ccc2cc3[nH]c4cc(N)ccc4c3nc2c1	39
O=C(CNc1ccc(Oc2ccccc2)cc1)N1CCOCC1	-3
COc1cc(-c2nc3ccccn3c2NCC2CCCO2)ccc1O (centres undefined)	-7
N=C1/C(=C\c2ccc(Br)o2)C(=O)N=C2SC(CC(=O)N3CCCCC3)=NN12	54
CCCC1=NN2C(=N)/C(=C\c3ccc(SCc4ccco4)o3)C(=O)N=C2S1	34
CCN(CC)CCn1c2ccccc2c(=O)c2c(O)ccc(O)c21	29
COc1ccc(CN2CCN(Cc3cccc(F)c3)CC2)cc1OC	21
CCCCc1nc2ccccc2c(NC(=O)CN2CCN(C)CC2)c1CCC	28
O=[S@]1Oc2ccccc2-c2ccccc21	44
CN(CCCCCCN(C)Cc1ccccc1O)Cc1ccccc1O	15
COc1cc(OC)c(OC)cc1/C=N/N(C)c1ccccc1	38
O=C1/C(=C\c2ccco2)CCC/C1=C\c1ccco1	31
CC(Oc1ccc(Cl)cc1Cl)C(=O)Nc1ccc(O)cc1 (centres undefined)	23

Twelve records drawn at random from the list so far, as already listed:
SMILES	MgcRacGAP Rac1
Nc1ccc2cc3[nH]c4cc(N)ccc4c3nc2c1	39
CC(Oc1ccc(Cl)cc1Cl)C(=O)Nc1ccc(O)cc1 (centres undefined)	23
COc1cc(-c2nc3ccccn3c2NCC2CCCO2)ccc1O (centres undefined)	-7
CCCC1=NN2C(=N)/C(=C\c3ccc(SCc4ccco4)o3)C(=O)N=C2S1	34
O=C(CNc1ccc(Oc2ccccc2)cc1)N1CCOCC1	-3
COc1cc(C=c2c3ccccc3n3c2cc(-c2ccccc2)[n+]3C)cc(OC)c1OC	25
COc1cc(CN2CCN(Cc3ccc(C(F)(F)F)cc3)CC2)cc(OC)c1OC	36
O=c1c(O)c(-c2ccc(O)c(O)c2)oc2cc(O)ccc12	67
CC(=O)Nc1ccc(S(=O)(=O)Nc2ccc(Nc3ccccc3)cc2)cc1	13
COc1cc(OC)c(OC)cc1/C=N/N(C)c1ccccc1	38
CCCCc1nc2ccccc2c(NC(=O)CN2CCN(C)CC2)c1CCC	28
COc1cc(/C=C/C(=O)OCC(=O)Nc2ccc3c(c2)OCCO3)ccc1O	20

(more compounds)
SMILES	MgcRacGAP Rac1
Cc1ccn2c(Nc3ccc4c(c3)OCO4)c(-c3ccc(O)cc3)nc2c1	22
COC1=C/C(=C/c2c(N)n3cc(C)sc3nc2=O)C=CC1=O	8
O=C(CN1CCN(c2ncccn2)CC1)N1CCCC1	25
COc1ccc(/C=N/N2CCN(C)CC2)cc1O	20
O=C(CNC(=O)c1ccco1)N/N=C/c1ccc(O)cc1O	11
CCn1c(=S)[nH]c2c(=O)n(C)c(=O)n(C)c21	28
COc1cc(/C=N/NC(=O)C(=O)Nc2ccccn2)ccc1O	19
CCC(=O)NC1=C(Cl)C(=O)C(NC(=O)CC)=C(Cl)C1=O	26
COc1cc(CNc2ccc(N3CCOCC3)cc2)cc(Br)c1OC	24
CCOc1ccc(/C=N/NC(=O)NC23CC4CC(CC(C4)C2)C3)cc1O	18
CN(C)c1ccc(NC(=O)CN2C(=O)c3ccccc3C2=O)cc1	30
C=CCOc1ccccc1CN1CCCN(C)CC1	22
Oc1ccc(N=Nc2ccccc2)cc1	9
COc1cc(/C=C/C(=O)OCC(=O)N2CCC(Cc3ccccc3)CC2)ccc1O	19
COc1cc(/C=N/NC(=O)c2cccc([N+](=O)[O-])c2)ccc1O	14
COc1cc(/C=N\N=C2/SC(CC(=O)O)C(=O)N2c2ccc(O)cc2)ccc1O (centres undefined)	41
Cn1cnc2cc(NCc3ccccc3O)ccc21	13
Nc1ccc(C(=O)c2ccc3c(c2)OCCO3)cc1N	23
CCOC(=O)c1sc2nc(CSc3ccccc3)nc(N3CCCN(C)CC3)c2c1C	30
COc1ccc(Cn2c(O)c(/C=N/NC(=O)c3cccnc3)c3ccccc3c2=O)cc1	39
COc1ccc(OC)c(CN2CCSCC2)c1	32
O=C1Nc2ccccc2C1=Nc1ccc2[nH]c3ccccc3c2c1	13
O=S(=O)(/N=S1\CC=CCN1S(=O)(=O)c1ccccc1)c1ccccc1 (centres undefined)	20
COc1ccc(/C=C2\C(=O)NC(=O)c3ccccc32)cc1OC	24
N#CC1=C(S)N(c2ccccc2)C(c2ccc(-c3cccc(Cl)c3)o2)NC1=O (centres undefined)	46
More entries:
SMILES	MgcRacGAP Rac1
Cc1nc(Cl)cc(N/N=C/c2ccc(O)cc2O)n1	11
CC(C(=O)N(C)Cc1ccccc1)N1CCN(C/C=C/c2ccccc2)CC1 (centres undefined)	28
COc1ccc(OC(=O)c2cc(S(=O)(=O)N3CCCC3)ccc2Cl)cc1	21
C=CCc1ccc(OCCOCCNCCCC)c(OC)c1	9
C=CCn1c(N/N=C/c2ccc(O)cc2)nc2ccccc2c1=O	18
CC1N(C)c2cccc3cccc(c23)N1C	29
CC(=O)Oc1ccc([N+](=O)[O-])cc1N1C(=O)c2ccccc2C1=O	19
O=C(O)c1cccc(-n2sc3ccccc3c2=O)c1	86
COc1ccccc1N1CCN(CC(=O)c2ccc(F)cc2)CC1	11
O=C1C(=C(I)I)c2ccccc2-c2ccccc21	57
COc1cc(Br)c(CNc2cc(C)ccc2C)cc1OC	27
COc1cc(-c2cc(OC)c(O)c(OC)c2)cc(OC)c1O	25
Cc1ccc(/C=N/Nc2ccc(Cl)c(C(=O)O)c2)s1	7
CCCCn1c(C)cc2cc(O)ccc21	6
O=C(Nc1ccc(N2CCCCCC2)cc1)c1ccc[nH]1	16
Nc1cc([N+](=O)[O-])ccc1Nc1ccc(O)cc1	27
Cc1cc(-c2ccccc2)nc2c(Br)c(=O)[nH]n12	44
CN(C)C(=S)N=c1ssc(=S)n1Cc1ccco1	18
CNc1nc2c3ccccc3n(C(C)=O)c2s1	19
O=C(NN=Cc1ccc(O)cc1)c1ccccc1NS(=O)(=O)c1cccs1	27
CC(C)(C)N(Cc1ccc2c(c1)OCO2)C(=O)/C=C\S(=O)c1ccccc1 (centres undefined)	18
CCCC(=O)NC(=S)Nc1cccc2c(O)cccc12	8
O=C(O)C1CSC(c2ccco2)N1 (centres undefined)	83
O=C1/C(=C\c2ccccc2)CN(C(=O)CCN2CCCCC2)C/C1=C/c1ccccc1	16
CN(C)c1nc(Oc2ccc(/C=N/O)cc2)nc(N(C)C)n1	27
(further entries)
SMILES	MgcRacGAP Rac1
COc1cc(/C=C/C(=O)OCC(=O)NNC(=O)c2cc(Cl)ccc2OC)ccc1O	24
Nc1ccccc1C(=O)NNc1c2ccccc2nc2ccccc12	29
CCN1CCN(CC(=O)Nc2ccc(C)c(Br)c2)CC1	27
COCCNC(=O)Cn1cc(/C=N/NC(=O)c2ccc(Oc3ccc(O)cc3)cc2)c2ccccc21	30
Cc1ccc(-c2cc(C(=O)N3CCN(c4ccc(O)cc4)CC3)c3ccccc3n2)cc1	24
CCOC(=O)c1sc(/N=C/c2c(O)ccc3ccccc23)cc1C	16
C=C1c2c(Cl)ccc(O)c2C(O)=C2C(=O)[C@]3(O)C(O)=C(C(N)=O)C(=O)[C@@H](N(C)C)[C@@H]3[C@@H](O)C12 (some centres undefined)	43
O=C(CNCc1ccccn1)N1CCc2ccccc2C1	27
COc1cc(/C=N/NC(=O)c2ccc3c(c2)OCO3)ccc1O	27
O=C(CCCCCNC(=O)c1ccccc1)N/N=C/c1ccc(O)cc1O	23
C/C(CCc1ccccc1)=N\NC(=O)C1C2CCCCC21 (centres undefined)	26
CCN(CC)S(=O)(=O)c1cccc(NC(=O)CNC2CCCCCC2)c1	31
OC1CNc2c(ccc3ccccc23)C1 (centres undefined)	23
COC(=O)CCNCCSc1nnc(-c2ccco2)n1Cc1ccccc1	21
O=C(Cc1coc2cc(O)ccc12)N1CCN(S(=O)(=O)c2ccc(Br)cc2)CC1	-4
CCN(CC)c1ccc(/C=N/NC(=O)c2ccoc2C)cc1	34
COc1ccc(Br)cc1CN1CCN(Cc2c[nH]c3ccccc23)CC1	25
Cc1ccc(-n2c(=S)[nH]c3sc4c(c3c2=O)CCC4)cc1	30
COc1ccc(-n2c(=O)c3c4c(sc3n3c(=S)[nH]nc23)CCCC4)cc1	16

The list is partial; the hit share may differ from the screen's.
